# Bioassay records: PubChem BioAssay, National Center for Advancing Translational Sciences (NCATS)
# Cruzain inh Det: blocks cruzain activity in presence of Triton detergent | P25779 | purified cruzain, Z-FR-AMC fluorescence, 0.01% Triton | Potency, µM, for the others: max response, negative = inhibition, most hits filed as inhibitors | hit rate 0.43% among 200,000 | AID 1478;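 further: plate controls were neutral wells for no effect and buffer without enzyme for full effect; nearly all actives have a fitted effect of over 40% in size; top concentration of the series not given in the record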
# Target sequence (P25779 123-467 limits assumed): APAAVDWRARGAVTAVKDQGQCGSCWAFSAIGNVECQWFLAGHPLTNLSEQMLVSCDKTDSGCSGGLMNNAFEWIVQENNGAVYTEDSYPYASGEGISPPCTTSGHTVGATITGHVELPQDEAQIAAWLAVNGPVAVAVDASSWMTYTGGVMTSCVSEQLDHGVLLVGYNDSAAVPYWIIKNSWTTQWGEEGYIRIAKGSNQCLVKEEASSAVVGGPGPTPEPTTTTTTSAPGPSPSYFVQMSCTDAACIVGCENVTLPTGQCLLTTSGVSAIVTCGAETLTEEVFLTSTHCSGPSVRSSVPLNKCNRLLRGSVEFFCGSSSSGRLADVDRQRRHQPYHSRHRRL
#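 Sodium acetate buffer (100 mM, pH 5.5) containing 5 mM DTT and 0.01% Triton X-100 hosted 1.5 nM cruzain and test compound for 15 min at room temperature. Cleavage of 2 uM Z-FR-AMC was then tracked by fluorescence.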
# 2A StopGo: lowers the luciferase signal of an FMDV 2A StopGo reporter | human cells with a luciferase reporter of 2A StopGo recoding; control for the full effect not named in the record | Potency, µM (titrated, usually from 57.9 µM), for inactives: top-dose signal change, negative = less light | hit rate 1.2% among 410,000 | AID 1159524; active = well fitted falling curve with a large enough effect; inconclusive = small, poorly fitted or top-dose-only effect; inactive = no such curve, though single readings can be large or run the other way; tested in HEK293T cells; further: on the % scale 0 is the no-effect control and ±100 the full control effect; nearly all actives have a fitted effect of over 45% in size; luciferase light after 4 h
# LASV entry inh: inhibitors of Lassa virus binding or cell entry | Lassa virus pseudotype entry inhibition, cell reporter; control for the full effect not named in the record | Potency, µM (highest dose often 37.9 µM), inactives show at the top dose activity change, negative = inhibition, hits mostly inhibitors | hit rate 1.2% among 300,000 | AID 540256; active means well fitted inhibition curve with a large enough effect; inconclusive means small, poorly fitted or top-dose-only effect, or effect the other way; inactive means flat fitted curve, though single readings scatter; tested in HEK293 cells; further: on the % scale 0 is the no-effect control and ±100 the full control effect; nearly all actives have a fitted effect of over 50% in size; luciferase read-out
# NS1 function inh: blocks influenza NS1 protein function. Potency, µM (series often up to 46.1 µM), inactives show at the highest dose activity, positive = more growth. hit rate 0.4% among 270,000. S. cerevisiae slowed by influenza A NS1, growth recovery by OD600; active means well fitted rising curve with a large enough effect; inconclusive means small, poorly fitted or top-dose-only effect; inactive means no such curve, though single readings can be large or run the other way; further: nearly all actives have a fitted effect of over 50% in size
#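 Read-out: OD600 growth recovery of NS1-expressing budding yeast. Cells grown overnight at 30C in -URA glucose medium, washed, resuspended and diluted 1:100 in 2% galactose assay medium, pH 6.0. Same strain lacking NS1 served as positive control.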
# Marburg entry inh: inhibitors of Marburg virus binding or cell entry. Marburg virus pseudotyped entry inhibition, cell reporter; control for the full effect not named in the record; about a third of the inactives were read at about 46 µM. Potency, µM (highest dose often 37.8 µM), for the others: at the highest dose activity change, negative = inhibition, usual class: inhibitors. hit rate 1.8% among 300,000; active = well fitted inhibition curve with a large enough effect; inconclusive = small, poorly fitted or top-dose-only effect, or effect the other way; inactive = flat fitted curve, though single readings scatter; tested in HEK293 cells; about a fifth of its hits are not listed in these tables; further: on the % scale 0 is the no-effect control and ±100 the full control effect; luciferase read-out
# RE007 growth inh: less growth of the S. pombe RE007 Vpr strain; S. pombe RE007 Vpr strain, BacTiter-Glo ATP luminescence, 24 h; control for the full effect not named in the record; Potency, µM (highest dose often 92.2 µM), without a hit: at the top dose activity change, negative = less growth; hit rate 0.21% among 360,000; active = well fitted falling curve with a large enough effect; inconclusive = small, poorly fitted or top-dose-only effect; inactive = no such curve, though single readings can be large or run the other way;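 further: on the % scale 0 is the no-effect control and ±100 the full control effect; nearly all actives have a fitted effect of over 50% in size; the assay follows cell death caused by Vpr and the record does not say whether a fall means rescue or toxicity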
#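 Fission yeast RE007 carrying one integrated HIV-1 vpr copy, seeded at OD 0.01 in PMG+AL medium with 23 nL pinned compound. Grown 24 h at 30 degrees; viability read by BacTiter-Glo luminescence after 5 min.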
# Cruzain noTriton: blocks cruzain activity in detergent-free assay | AID 1476 | purified cruzain, Z-FR-AMC fluorescence, no detergent | hit rate 2.3% among 200,000 | Potency, µM, without a hit: max response, negative = inhibition, hits mostly inhibitors;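 further: plate controls were enzyme without inhibitor for no effect and buffer without enzyme for full effect; nearly all actives have a fitted effect of over 40% in size; top concentration of the series not given in the record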
#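 Detergent-free condition (0.00005% Triton X-100) in acetate buffer pH 5.5 with DTT. 1.5 nM enzyme and compound were pre-mixed 15 min, then 2 uM Z-FR-AMC substrate added; reaction progress from fluorescence change between first and third reads (60 s).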
# SARS PLP yeast: inhibitors of SARS-CoV papain-like protease in yeast. hit rate 0.19% among 330,000. AID 485353. Potency, µM (series often up to 32.9 µM), for the others: at the highest dose activity, positive = growth rescue. S. cerevisiae expressing SARS-CoV PLpro, growth rescue; control for the full effect not named in the record; active means well fitted rising curve with a large enough effect; inconclusive means small, poorly fitted or top-dose-only effect; inactive means no such curve, though single readings can be large or run the other way; further: 0% is about no effect; nearly all actives have a fitted effect of over 55% in size; growth read by luminescence after 48 h
# An asterisk follows results filed as active; u = inconclusive; x = no result given; & = joins results of further samples; [ ] = another dose, or the depositor's remark. Unless noted, the call rests on the fitted dose curve; in most records, active means well fitted curve in the direction sought with a large enough effect; inconclusive means small, poorly fitted or top-dose-only effect, or another doubt; inactive means no such curve, though single readings can be large; an effect the other way counts as inactive or inconclusive. Potency means the concentration at half of the fitted maximal effect.
SMILES,Cruzain inh Det,2A StopGo,LASV entry inh,NS1 function inh,Marburg entry inh,RE007 growth inh,Cruzain noTriton,SARS PLP yeast
CCN(CC)S(=O)(=O)c1cccc(NC(=O)c2cc(-c3cccs3)nn2-c2ccccc2)c1,-1.2%,-12.6%,u,u,u,3.2%,u,10.5%
O=C(Nc1cccnc1)c1ccc(S(=O)(=O)c2ccc(Cl)cc2)cc1,x,28.2µM*,u,x,u,2.1%,x,1.7%
COc1ccc(N2CCN(C(=O)C3CCN(S(=O)(=O)c4c(C)noc4/C=C/N(C)C)CC3)CC2)cc1,x,12.2%,-18.7%[46.1 µM],u,-14.2%[46.1 µM],3.8%,x,0.0%
CCO[C@H]1OC(C(=O)NC2CC2)=C[C@@H](c2ccc(Br)cc2)[C@@H]1CCCO,x,u,x,-0.6%,x,2.8%,x,-0.2%
Cc1cccc(N2CCN(C(=O)c3cc4ccc5cccnc5c4[nH]3)CC2)c1C,-6.1%,-6.2%,2.6%[46.1 µM],x,x,x,u,x
CCOC(=O)C1=C(C)NC(=O)C(C(N)=O)C12CCCC2 (configuration not stated),1.4%,-1.6%,-2.0%,14.3%,12.4%,0.3%,3.4%,-4.6%
COC(=O)c1ccc(-c2nn(C)c(=O)c3ccccc23)cc1,-2.0%,0.0%,x,-3.0%,-1.1%,10.0%,5.8%,-3.8%
Cc1cc(=O)oc2cc(OCC(=O)NCCc3ccccc3)ccc12,x,-10.6%,-3.0%,2.7%,4.2%[46.1 µM],10.0%,x,-3.3%
O=C(Nc1ccccc1C(=O)O)/C(=C/c1ccc(Cl)cc1Cl)NC(=O)c1ccco1,x,-18.2%,u,11.4%,-0.8%,0.5%,x,3.2%
O=C(Oc1cccnc1)c1cccc(Cl)c1,-2.0%,x,9.7%,-33.8%,6.5%,-10.1%,-11.7%,3.7%
O=C(CCCCCN1C(=O)c2ccccc2C1=O)NCCc1nc2ccccc2[nH]1,-12.2%,-22.6%,-19.3%,0.4%,u,-26.0%,-19.0%,1.8%
Cc1ccc(C)c(NCc2ccccc2CO)c1,x,0.3%,-0.7%,-1.8%,-4.5%&-4.5%[46.1 µM],-1.2%,x,-1.4%
Cc1ccccc1-c1nsc(SCC(=O)Nc2ccc3c(c2)OCO3)n1,-4.5%,-8.4%,-0.9%,2.6%,u,6.6%,-0.5%,11.5%
COCCNC(=O)C(OC(=O)c1cccs1)c1ccccc1 (configuration not stated),7.7%,-9.0%,3.3%,5.0%,-4.6%,4.7%,12.1%,3.2%
COc1ccc(C2=CC(c3ccccc3F)n3ncc(C(=O)Nc4ccc(C)cc4)c3N2)cc1 (configuration not stated),-1.5%,-18.1%,-8.5%[46.1 µM],x,x,x,2.3%,x
CCn1c(SCC(=O)N2CCN(c3ccc(F)cc3)CC2)nc2ccccc2c1=O,-9.9%,-13.4%,-0.5%,-69.7%,17.4%,-1.6%,25.8%,5.3%
C1CCCN(CCCCN2CCCCCC2)CC1,6.2%,-4.0%,0.2%,13.9%,-9.5%&-9.5%,-4.3%,1.6%,x
COC(Cc1nnc(SC)n1-c1ccc(Cl)cc1)OC,5.7%,14.7%,-15.0%,18.1%,-1.5%,-4.6%,-11.1%,-0.5%
Cc1cccc(CCNC(=O)Cn2ncc3c([nH]c4ccccc43)c2=O)c1,x,-3.5%,x,2.6%,x,11.7%,x,6.3%
ClCc1nc2ccccc2c2ccccc12,x,u,1.0%,2.1%,-20.6%[46.1 µM],11.7%,x,7.4%
CCN1CCC(NC(=O)c2cc(OC)c(OC)cc2OC)CC1,3.6%,-4.4%,0.8%,6.8%,1.7%,4.3%,-0.3%,8.6%
CSCCC(NS(=O)(=O)c1ccccc1F)C(=O)NCc1cccnc1 (configuration not stated),x,-10.8%,-1.8%[46.1 µM],x,12.9%,-9.6%,x,-2.9%
CCCN1CCc2cc(O)cc3c2C1Cc1ccc(O)c(O)c1-3 (configuration not stated),-5.3%,-5.5%,x,18.1%,35.5µM*,x,8.8%,x
Cc1ccc(S(=O)(=O)C2CCOC2=O)cc1 (configuration not stated),1.3%,9.9%,1.3%,0.7%,u,-14.0%,-8.4%,10.1%
CC(/C=C/c1ccccc1)=N\Nc1ccccc1[N+](=O)[O-],x,21.3%,-4.0%[46.1 µM],x,u,-1.9%,x,-2.2%
Cc1ccc(C2CC(=O)N3CN(c4ccc(Br)cc4)CSC3=C2C#N)o1 (configuration not stated),u,2.0%,-1.5%,u,2.3%&2.3%,-11.8%,0.2%,0.0%
COCCn1c(SCC(=O)Nc2ccc(Cl)cn2)nnc1-c1ccncc1,x,-0.6%,19.4%,x,-13.4%,5.5%,x,-3.3%
CC1=NC(=O)C(N=Nc2ccccc2C(=O)O)N1c1ccccc1 (configuration not stated),x,12.2%,-24.2%,-1.9%,3.8%[46.1 µM],3.7%,x,1.2%
CC(C)(C)NC(=O)C(c1ccncc1)N(C(=O)c1csnn1)C1CC1 (configuration not stated),2.5%,-25.2%,-1.8%,-5.4%,1.0%,14.2%,-5.3%,6.7%
CN1C(=O)C2(c3ccccc31)N(c1cccc(F)c1)C(=O)CS2(=O)=O (configuration not stated),-6.4%,0.0%,u,x,x,x,-7.0%,x
CCC(=O)N(CCc1ccccc1C)Cc1cc2cc3c(cc2[nH]c1=O)OCO3,-0.4%,u,-6.8%,12.2%,-13.6%,6.8%,-5.6%,6.7%
N#Cc1c(-c2ccc(Br)cc2)nc2n(c1=O)CCCS2,-1.0%,15.0%,-8.5%,-135.0%,3.6%,1.8%,-10.8%,-7.8%
Cc1ccc(C(=O)N/C(=C/c2ccc(Cl)cc2)C(=O)Nc2cccc(C(=O)O)c2)cc1,-7.7%,-18.8%,u,u,23.3%,x,u,-1.9%
Cc1cccc(C)c1NC(=O)Cn1nnc(C(=O)NCc2ccc(F)cc2)c1N,-0.7%,-1.9%,1.1%[46.1 µM],x,x,x,-5.7%,x
CCOc1ccc(C2CC(=O)Nc3cc4c(cc32)OCO4)cc1OC (configuration not stated),0.6%,u,-26.5%[46.1 µM],x,-29.3%[46.1 µM],x,-5.0%,x
COc1ccc(NC(=O)CN(C)C(=O)c2cc(S(=O)(=O)N(C)C)ccc2N2CCCC2)cc1,x,-5.0%,4.5%,x,-13.2%,-1.2%,x,x
CCNC(=O)N(C)c1nncnc1C(=O)NC,-0.6%,-13.4%,17.3%,4.7%,23.4%&23.4%,10.8%,2.9%,-2.5%
COc1cccc(NC(=O)Nc2cc(-c3cn4cccnc4n3)ccc2OC)c1,-10.2%,31.8%[activator],3.1%[46.1 µM],x,-0.4%[46.1 µM],x,u,x
COc1ccc(NC(=O)CSc2ncccc2C(=O)OC(C)C)cc1OC,-1.6%,u,u,-7.7%,u,6.4%,9.3%,-1.7%
O=C(Cc1cccs1)N/N=C/C(Br)=C/c1ccccc1,1.3%,62.2%[activator],72.0%[14.3 µM],-2.9%,8.4%,-6.3%,15.8µM*,-2.8%
COc1ccccc1N1CCN(C(=O)c2ccc(Cl)c(S(=O)(=O)NCc3ccco3)c2)CC1,-0.8%,-25.4%,u,-0.6%,u,5.6%,12.3%,-8.1%
CN([C@@H](Cc1ccc(OS(=O)(=O)c2cccc3cnccc23)cc1)C(=O)N1CCN(c2ccccc2)CC1)S(=O)(=O)c1cccc2cnccc12,1.8%&0.6%,-19.1%,u,u,u,-8.0%,u,4.1%
CN(C)CCNC(=O)c1ccc(Sc2ccc(Br)cc2)c([N+](=O)[O-])c1,x,-3.1%,u,x,u,2.4%,x,1.1%
CCCCCCCCNC(CO)(CO)CO,x,-3.2%,5.2%[46.1 µM],-5.4%,8.6%[46.1 µM],5.3%,x,-0.7%
Cn1c(SCC(=O)Nc2ccc(Cl)cn2)nnc1C1CC1,x,24.4%,18.0%[46.1 µM],6.9%,7.9%[46.1 µM],6.3%,x,-6.8%
CCn1c(=O)c(NC(=O)c2ccccc2)c2n(c1=S)CCCCC2,-0.4%,-19.3%,-1.7%,2.5%,2.6%[46.1 µM],8.7%,3.3%,6.9%
O=C(CSc1ncnc2sccc12)N1CCCCC1,x,16.9%,16.8%,x,3.2%,-4.6%,x,-0.1%
COc1ccc(-n2nnnc2CNC(=O)C2CC(=O)N(c3ccc(Cl)cc3)C2)cc1 (configuration not stated),x,-15.8%,-23.8%,x,1.5%[46.1 µM],-23.9%,x,1.0%
CC1SCC(NC(=O)c2cccc(Cl)c2)CS1 (configuration not stated),x,19.2%,-0.6%,-5.9%,-1.2%[46.1 µM],-17.4%,x,-1.4%
Cc1csc(NC(=O)CSc2nc(=O)[nH]c3c2CCCC3)n1,x,-4.8%,x,10.3%,x,5.0%,x,-4.0%
Cc1ccc(CNC(=O)c2nn(-c3ccc(Cl)cc3)nc2CO)cc1,0.9%,-14.0%,u,x,-4.7%[46.1 µM],x,-12.5%,x
Cc1ccccc1NC(=O)C1CC(Cl)=CCC1C(=O)O (configuration not stated),1.6%,12.6%,-11.8%,-6.0%,8.4%,11.5%,2.2%,3.8%
Cc1ncc(S(=O)(=O)c2ccccc2)c(-c2ccc(Cl)cc2Cl)n1,-2.2%,-19.4%,u,-6.5%,u,0.9%,-3.2%,-13.9%
O=C(CN1CCC(n2nnc3cc(C(F)(F)F)ccc32)CC1)Nc1ccc2c(c1)OCCO2,-1.6%,u,u,-26.0%,u,u,-0.3%,2.8%
Cc1ccc(C)c(N2CCN(C(=O)c3ccc(NC(=O)c4nsc5ccccc45)cc3)CC2)c1,0.2%,28.7%,5.4%[46.1 µM],x,x,x,-26.6%,x
COCc1nnc(NC(=O)c2cccs2)s1,5.1%,38.3%[activator],4.4%,-13.2%,u,-1.2%,-4.4%,4.2%
O=C(Oc1ccc(-c2ccccc2)cc1)c1ccco1,x,7.7%,-4.2%[46.1 µM],x,8.5%[46.1 µM],-12.5%,x,x
